# Assay outcomes deposited in PubChem by National Center for Advancing Translational Sciences (NCATS).
# Cruzain inh noDet: cruzain (T. cruzi) inhibition without detergent; P25779; purified cruzain, Z-FR-AMC fluorescence, no detergent; Potency, µM, for inactives: max response, negative = inhibition, hits mostly inhibitors; 2.3% of 200,000 active; AID 1476;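 also: plate controls were enzyme without inhibitor for no effect and buffer without enzyme for full effect; nearly all actives have a fitted effect of over 40% in size; top concentration of the series not given in the record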
# Target sequence (P25779 123-467 limits assumed): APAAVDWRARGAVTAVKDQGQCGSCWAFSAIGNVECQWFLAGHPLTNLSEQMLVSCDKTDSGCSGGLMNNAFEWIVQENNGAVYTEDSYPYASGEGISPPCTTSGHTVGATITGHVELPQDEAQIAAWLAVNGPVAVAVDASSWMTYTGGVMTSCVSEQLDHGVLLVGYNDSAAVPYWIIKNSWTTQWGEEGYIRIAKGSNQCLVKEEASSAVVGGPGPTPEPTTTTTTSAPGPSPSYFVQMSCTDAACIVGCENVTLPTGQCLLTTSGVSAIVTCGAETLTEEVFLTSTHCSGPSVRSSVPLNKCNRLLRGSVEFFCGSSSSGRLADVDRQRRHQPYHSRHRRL
#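 Detergent-free condition (0.00005% Triton X-100) in acetate buffer pH 5.5 with DTT. 1.5 nM enzyme and compound were pre-mixed 15 min, then 2 uM Z-FR-AMC substrate added; reaction progress from fluorescence change between first and third reads (60 s).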
# Marburg entry inh: inhibitors of Marburg virus binding or cell entry; Marburg virus pseudotyped entry inhibition, cell reporter; control for the full effect not named in the record; about a third of the inactives were read at about 46 µM; Potency, µM (highest dose often 37.8 µM), for inactives: top-dose activity change, negative = inhibition, hits mostly inhibitors; 1.8% of 300,000 active; AID 540276; active = well fitted inhibition curve with a large enough effect; inconclusive = small, poorly fitted or top-dose-only effect, or effect the other way; inactive = flat fitted curve, though single readings scatter; tested in HEK293 cells; about a fifth of its hits are not listed in these tables; also: % is scaled to controls: 0 for no effect and ±100 for the full control effect; luciferase read-out
# Cruzain Triton: blocks cruzain activity in presence of Triton detergent | P25779 | purified cruzain, Z-FR-AMC fluorescence, 0.01% Triton | Potency, µM, without a hit: max response, negative = inhibition, hits mostly inhibitors | 0.43% of 200,000 active;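 also: plate controls were neutral wells for no effect and buffer without enzyme for full effect; nearly all actives have a fitted effect of over 40% in size; top concentration of the series not given in the record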
#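 In this qHTS format, compounds are incubated with 1.5 nM cruzain for 15 min at room temperature before 2 uM Z-FR-AMC is added. Release of AMC is followed at 360/450 nm, and progress is taken as the 60 s fluorescence difference.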
# SARS PLP yeast: blocks SARS-CoV papain-like protease in a yeast assay; S. cerevisiae expressing SARS-CoV PLpro, growth rescue; control for the full effect not named in the record; Potency, µM (doses to about 32.9 µM), without a hit: at the top dose activity, positive = growth rescue; 0.19% of 330,000 active; active means well fitted rising curve with a large enough effect; inconclusive means small, poorly fitted or top-dose-only effect; inactive means no such curve, though single readings can be large or run the other way; also: 0% is about no effect; nearly all actives have a fitted effect of over 55% in size; growth read by luminescence after 48 h
# StopGo reporter: FMDV 2A StopGo reporter, luciferase signal | Potency, µM (doses to about 57.9 µM), without a hit: at the top dose signal change, negative = less light | 1.2% of 410,000 active | human cells with a luciferase reporter of 2A StopGo recoding; control for the full effect not named in the record; active = well fitted falling curve with a large enough effect; inconclusive = small, poorly fitted or top-dose-only effect; inactive = no such curve, though single readings can be large or run the other way; tested in HEK293T cells; also: % is scaled to controls: 0 for no effect and ±100 for the full control effect; nearly all actives have a fitted effect of over 45% in size; luciferase light after 4 h
# NS1 function inh: blocks influenza NS1 protein function | S. cerevisiae slowed by influenza A NS1, growth recovery by OD600 | Potency, µM (doses to about 46.1 µM), for inactives: at the top dose activity, positive = more growth | 0.4% of 270,000 active; active means well fitted rising curve with a large enough effect; inconclusive means small, poorly fitted or top-dose-only effect; inactive means no such curve, though single readings can be large or run the other way; also: nearly all actives have a fitted effect of over 50% in size
#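 Recovery from NS1-induced slow growth read by OD600 in budding yeast switched to galactose assay medium (pH 6.0, -URA) at 1:100 dilution. Compound 23 nl per well; the matching strain lacking NS1 serves as control.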
# Lassa entry inh: blocks Lassa virus binding to or entry into cells. Lassa virus pseudotype entry inhibition, cell reporter; control for the full effect not named in the record. Potency, µM (series often up to 37.9 µM), inactives show at the highest dose activity change, negative = inhibition, most hits filed as inhibitors. 1.2% of 300,000 active; active means well fitted inhibition curve with a large enough effect; inconclusive means small, poorly fitted or top-dose-only effect, or effect the other way; inactive means flat fitted curve, though single readings scatter; tested in HEK293 cells; also: % is scaled to controls: 0 for no effect and ±100 for the full control effect; nearly all actives have a fitted effect of over 50% in size; luciferase read-out
# RE007 growth inh: less growth of the S. pombe RE007 Vpr strain; S. pombe RE007 Vpr strain, BacTiter-Glo ATP luminescence, 24 h; control for the full effect not named in the record; Potency, µM (highest dose often 92.2 µM), for inactives: at the highest dose activity change, negative = less growth; 0.21% of 360,000 active; active = well fitted falling curve with a large enough effect; inconclusive = small, poorly fitted or top-dose-only effect; inactive = no such curve, though single readings can be large or run the other way;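 also: % is scaled to controls: 0 for no effect and ±100 for the full control effect; nearly all actives have a fitted effect of over 50% in size; the assay follows cell death caused by Vpr and the record does not say whether a fall means rescue or toxicity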
#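 Fission yeast strain RE007, carrying one chromosomally integrated HIV-1 vpr copy, was seeded at OD 0.01 in PMG+AL medium with 23 nL pinned compound. After 24 h at 30 °C and 99% humidity, viability was read by BacTiter-Glo luminescence.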
# * = called active by the depositor; ? = inconclusive; nt = not tested or not shown; & = joins results of further samples; [ ] = dose if it differs, or a comment. Unless noted, calls follow the shape of the dose curve; as a rule, active = well fitted curve in the direction sought with a large enough effect; inconclusive = small, poorly fitted or top-dose-only effect, or another doubt; inactive = no such curve, though single readings can be large; an effect the other way counts as inactive or inconclusive. Potency is read from the fitted curve at half-maximal effect. An unsorted share of the library. About 4.6% of those tested had a hit in this group.
molecule,Cruzain inh noDet,Marburg entry inh,Cruzain Triton,SARS PLP yeast,StopGo reporter,NS1 function inh,Lassa entry inh,RE007 growth inh
CCNC(=O)CC1C(=O)N(c2ccccc2)C(=O)N1CCc1ccc(OC)c(OC)c1 (stereo not drawn),-6%,5%,4.0%,2%,-10%,5%,1%,-6%
CC1CCN(c2nc3ccc(C(=O)NCc4ccccc4)cc3s2)CC1,-3%,24%[46.1 µM],-2.5%,nt,-9%,nt,9%[46.1 µM],nt
c1nc(N2CCCCC2)c2[nH]cnc2n1,1%,?,-1.4%,7%,5%,4%,-5%,-1%
COc1ccc(C2NCc3ccc4c(c3-n3cccc32)OCO4)cc1O (stereo not drawn),-10%,0.63µM*,-5.8%,-10%,-13%,-14%,?,10%
COc1ccc(CNC(=O)CN(Cc2ccccc2)C(=O)CCC(=O)Nc2nccs2)cc1,nt,4%[46.1 µM],nt,2%,-4%,-5%,-7%,-9%
Cc1ccc(S(=O)(=O)NN2C(=O)c3ccccc3NC2c2ccco2)cc1 (stereo not drawn),nt,11%[46.1 µM],nt,-1%,5%,nt,-9%[46.1 µM],-14%
O=C(CSc1n[nH]c(-c2ccccc2Cl)n1)N1CCN(c2ccccc2)CC1,19%,nt,-0.7%,nt,35µM*,nt,-4%[46.1 µM],nt
CS(=O)(=O)N1CCN(c2ccc(NC(=O)c3ccc([N+](=O)[O-])o3)cc2)CC1,nt,4%,nt,4%,45%[activator],nt,7%,-23%
CN(c1ccccc1)S(=O)(=O)c1cccc(C(=O)OCC(=O)Nc2ccc(C(N)=O)cc2)c1,nt,0%[46.1 µM],nt,2%,?,nt,6%[46.1 µM],-9%
Cc1cccc(NC(=O)CSc2nnc([C@H](C)NC(=O)OC(C)(C)C)o2)c1C,nt,7%[46.1 µM],nt,-3%,-16%,3%,4%[46.1 µM],-5%
COc1ccc(NC(=S)N(CCCN2CCC(C)CC2)Cc2cccs2)cc1,nt,?,nt,-5%,14%,nt,-13%,17%
COc1ccc(Cl)cc1NC(=O)CSC1=Nc2ccccc2C2=NC(CCC(=O)NCc3ccc(F)cc3)C(=O)N12 (stereo not drawn),1%,24%[46.1 µM],-4.4%,nt,-13%,nt,-3%[46.1 µM],nt
CC(C)CC(NC(=O)OC(C)(C)C)c1cn([C@@H](CCC(=O)OC(C)(C)C)C(=O)N2CCN(C(=O)OC(C)(C)C)CC2)nn1 (stereo partly drawn),nt,nt,nt,0%,-9%,8%,nt,-5%
CCOC(=O)c1ccc(NC(=O)C2(N3C(=O)c4ccccc4C3=O)CCCC2)cc1,nt,-5%,nt,nt,-16%,nt,?,-20%
O=C(c1ccccc1)N1N=C(c2ccccc2)CC1c1ccccc1 (stereo not drawn),nt,?,nt,-1%,-21%,-1%,13%[46.1 µM],-2%
Cc1c(Cl)ccc2c1NC(=O)C21NC(CCC(N)=O)[C@H]2C(=O)N(c3ccc(Cl)cc3)C(=O)[C@H]21 (stereo partly drawn),?,8%&-25%,2.5%,-3%,?,-34%,-13%,12%
CC(C)n1c(O)c(/C=C2\C=Nc3ccccc32)sc1=Nc1ccccc1,?,-23%,6.8%,-11%,nt,3%,-27%,4%
CC(C)N(Cc1ccccc1)C(=O)/C=C/c1ccccc1[N+](=O)[O-],nt,?,nt,0%,-26%,-1%,?,8%
C=CCn1c(SCC(=O)O)nnc1-c1ccccc1,-9%,-5%,-0.7%,3%,-20%,4%,?,-12%
Cc1ccc(C)c(-c2[nH]ncc2CN2CCCC(CO)(Cc3ccccc3C)C2)c1 (stereo not drawn),nt,25µM*,nt,1%,-25%,4%,nt,1%
Cc1cccc(C(=O)NCCc2nnc(SCC(=O)Nc3cccc(C(=O)O)c3)n2C)c1,nt,19%,nt,-7%,-4%,2%,2%,0%
O=C(c1ccc(Cl)cc1)c1nnc(-c2ccncc2)o1,14%,-2%,-2.3%,0%,11%,-4%,10%,7%
Cc1csc(SCc2nc3sc4c(c3c(=O)[nH]2)CCC4)n1,-11%,?,-1.6%,-14%,3%,-7%,-1%,0%
O=C(N/N=C/c1cn(Cc2ccccc2)c2ccccc12)c1ccncc1,nt,?,nt,5%,?,nt,?,0%
COc1ccc(C2c3c(oc4ccccc4c3=O)C(=O)N2Cc2ccncc2)cc1 (stereo not drawn),-7%,nt,0.4%,-1%,nt,3%,nt,nt
Clc1ccc(-n2cc(-c3ccc(Br)cc3)[n+]3c2CCCCC3)cc1,nt,nt,nt,-1%,-15%,-3%,nt,4%
COc1ccc(C(=O)NCC(=O)OCC(=O)NC2CCCCCC2)cc1,nt,-17%,nt,-5%,-8%,nt,3%,16%
O=C(Cn1c(NCCO)nc2ccccc21)Nc1cccc(S(=O)(=O)N2CCCC2)c1,nt,-13%,nt,3%,9%,nt,-19%,1%
O=C(/C=C/c1cc([N+](=O)[O-])ccc1OC(F)F)Nc1cccc(OC(F)F)c1,-11%,-5%,-7.9%,18%,?,6%,4%,-5%
O=C(O)CCc1ccc(-c2ccccc2)n1CC1CCCO1 (stereo not drawn),10%,4%[46.1 µM],-7.4%,-3%,-11%,11%,19%,-8%
S=c1[nH]nc(COc2ccccc2)n1-c1ccc(Cl)cc1,nt,?,nt,nt,-22%,nt,?,11%
COc1cccc(-c2nc(CS(=O)(=O)CC(=O)Nc3ccc(F)cc3F)c(C)o2)c1,nt,-25%[46.1 µM],nt,-6%,?,-7%,?,-12%
COc1ccc(/C=N/n2c(=S)n(C)c3ccccc32)cc1OC,?,-26%,-3.0%,-5%,-17%,-12%,-6%,-6%
O=C(Nc1c(F)c(F)c(F)c(F)c1F)NC1CCCCC1,3%,13%,4.5%,-7%,26%,3%,?,5%
O=C(NCc1ccco1)/C(=C\c1ccco1)NC(=O)c1cccs1,nt,3%[14.2 µM],nt,1%,-4%,4%,-4%,1%
CC(C)CCN1C(=O)c2ccc(C(=O)OCC(=O)N(C)C3CCS(=O)(=O)C3)cc2C1=O (stereo not drawn),nt,8%[46.1 µM],nt,0%,6%,nt,-1%,-2%
CCc1ccc(C(=O)COC(=O)c2cccc(N3C(=O)c4c(C)nc5ccccc5c4C3=O)c2)cc1,6.3µM*,?,4.0%,-1%,24%,17%,?,14%
Cc1cccc2nc(CSc3nnnn3-c3ccccc3)cn12,-8%,?,-1.9%,-4%,-4%,-67%,-10%,-28%
O=C(NCCN1CCOCC1)N1CCOCC1,3%,?,0.8%,4%,29%,-3%,3%,6%
CCNS(=O)(=O)c1ccc(CCC(=O)N2CCN(c3ccccc3)CC2)cc1,nt,nt,nt,-1%,-4%,6%,nt,-12%
COc1coc(/C=C/C(=O)O)cc1=O,4%,-14%,-4.3%,13%,4%,?,4%,29%
CCN(CC)S(=O)(=O)c1ccc(OC)nc1,2%,7%,2.5%,10%,-7%,-9%,3%,-18%
Cc1nc2scc(C)n2c(=O)c1S(=O)(=O)Nc1ccc(N2CCOCC2)cc1,17%,4%&-26%[46.1 µM],-4.9%,-11%,-18%&-8%,-3%,-16%&-1%[46.1 µM],-5%
CCc1nnc(NC(=O)CSc2n[nH]c(-c3ccccc3O)n2)s1,nt,25%[46.1 µM],nt,0%,10%,-2%,15%,4%
CC1(C)Cc2c(C#N)c(N3CCCC3)nc(-c3ccco3)c2CO1,?,-1%,-4.1%,0%,nt,-60%,nt,nt
Cn1c(=O)oc2cc(S(=O)(=O)NCCC(=O)Nc3ccc(F)cc3F)ccc21,-8%,-6%[46.1 µM],0.8%,nt,-5%,nt,-2%[46.1 µM],nt
COc1ccccc1/C=C1/C(=O)N(c2ccc([N+](=O)[O-])cc2)N=C1C,nt,nt,nt,-5%,-2%,-5%,nt,2%
COc1ccc(-c2cn(Cc3ccc(C(=O)c4ccccc4)cc3)nn2)cc1,nt,nt,nt,4%,10%,38%,nt,19%
COCCCNC(=O)CN1C(=O)c2cccnc2Sc2ccccc21,12%,nt,-0.3%,nt,-5%,nt,?,nt
COc1ccc(C2NCCn3cccc32)cc1 (stereo not drawn),-5%,-1%,-3.1%,15%,-10%,12%,4%,-4%
CN(CCC#N)C(=O)COC(=O)c1c2c(nc3ccccc13)/C(=C/c1ccco1)CC2,?,0%,-12%,-30%,27%,?,0%,-10%
CC1CCN(C(=O)COC(=O)C2CCN(S(=O)(=O)c3c(Cl)cccc3Cl)CC2)CC1,nt,6%,nt,-1%,-16%,nt,?,20%
C/C(=C\C(=O)c1ccccc1)Nc1ccc2c(c1)OCO2,-6%,-2%,-4.9%,5%,-10%,13%,1%,-29%
O=C(CC1C(=O)NCCN1Cc1c(F)cccc1Cl)NCCCn1ccnc1 (stereo not drawn),nt,21%[46.1 µM],nt,0%,-6%,1%,3%[46.1 µM],-14%
COc1ccc(C(=O)C2CCCN(Cc3cccn3-c3nccs3)C2)cc1F (stereo not drawn),nt,?,nt,6%,-6%,-4%,?,-5%
CCCCc1ccc(C2C3=C(CC(C)(C)CC3=O)NC3=C2C(=O)c2ccccc23)cc1 (stereo not drawn),?,?,-3.4%,13%,-9%,?,?,0%
CCOc1ccc(N2CC(c3nc4ccccc4n3Cc3cccc(C)c3)CC2=O)cc1 (stereo not drawn),2%,nt,-9.4%,nt,-20%,nt,-26%[46.1 µM],nt
CN(C[C@@H](CC1CCCCC1)N(C[C@H](Cc1ccccc1)N(CCc1ccccc1)N=O)N=O)N=O,nt,nt,nt,-1%,7%,8%,nt,-10%
N#Cc1cccc(NC(=O)Cn2cnc(S(=O)(=O)N3CCOCC3)c2)c1,nt,nt,nt,-4%,-1%,23%,nt,-2%
COc1ccc(-c2noc(CNC(=O)c3ccco3)n2)cc1,-12%,-1%[46.1 µM],-5.7%,nt,5%,nt,21%[46.1 µM],nt
O=C(CNC(=O)c1ccccc1)NCC(=O)OCc1ccccc1Cl,nt,19%[46.1 µM],nt,-3%,16%,4%,2%,2%
O=C(COc1cccc(-n2cnnn2)c1)Nc1ccc([N+](=O)[O-])cc1,nt,0%[46.1 µM],nt,-1%,-5%,3%,0%[46.1 µM],1%
CSc1ncccc1C(=O)N(C)CC(=O)Nc1cccc(F)c1,nt,-6%[46.1 µM],nt,-8%,-12%,2%,?,9%
